High-throughput results (PubChem BioAssay)
E coli growth = E. coli growth inhibition, primary screen, OD600; Escherichia coli growth, 23 h; stronger effect = lower value; OD600 absorbance (concentration not given with the values); hit rate 0.21% among 330,000; AID 1053175, 2014;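 active = OD600 absorbance below the run mean of sample wells minus 3.6 SD, in any replicate, cut at about 0.56 in these data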;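 also: stock transfer was 300 nL into about 60 µL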
* = called active by the depositor; & = joins results of further samples.

Cc1ccc(NC(=O)C(=CC=Cc2ccccc2)NC(=O)c2ccccc2)cc1
- E coli growth = 0.72

O=C(O)CC1c2cc(F)ccc2S(=O)(=O)N1Cc1ccccc1 (stereo unspecified)
- E coli growth = 0.67

COC(=O)c1ccc(C(NC(=O)OCc2ccccc2)C(F)=CC(C)C(=O)NCc2ccc(-c3ccccc3)cc2)cc1 (stereo unspecified)
- E coli growth = 0.72

COc1ccc(C2CC=C(C(=O)O)C(c3ccccc3F)N2S(=O)(=O)c2ccc(C)cc2)cc1OC (stereo unspecified)
- E coli growth = 0.68

CC=CC(=O)OCC(=O)Nc1nc2ccc(C)cc2s1
- E coli growth = 0.72

CC1CN(C(C)CO)C(=O)c2cccc(NC(=O)Cc3ccccc3)c2OC1CN(C)S(C)(=O)=O (stereo unspecified)
- E coli growth = 0.67

CC(C)CC(COc1ccccc1)N1CCN(CC(C)C)CCC1=O (stereo unspecified)
- E coli growth = 0.71

O=C1NC(Cc2ccccc2)CO1 (stereo unspecified)
- E coli growth = 0.69

CCOC(=O)C=Cc1ccc2c(c1)S(=O)(=O)N(Cc1ccc(OC)cc1)C2CC(=O)OCC (stereo unspecified)
- E coli growth = 0.71

Cc1ccc(SCCNC(=O)C=Cc2ccc(Cl)cc2)cc1
- E coli growth = 0.68

C#CCOCCOCCOCCNc1nc(N2CCN(C(=O)C(CCCCN)n3cc(C(N)CO)nn3)CC2)nc(N2CCN(C(=O)C(CCC(=O)O)n3cc(C(N)C(C)CC)nn3)CC2)n1 (stereo unspecified)
- E coli growth = 0.67

O=C(NCCc1ccccc1)C1CC=CC2CCN(Cc3ccccc3)C(=O)C21 (stereo unspecified)
- E coli growth = 0.7

CCN1C(=NCc2ccco2)NC(c2cccc(C(F)(F)F)c2)C(C(=O)OC)=C1C (stereo unspecified)
- E coli growth = 0.67

COc1ccc2c(c1)CCC1C2CC[C@]2(C)C(C(=O)O)CC12 (stereo partly specified)
- E coli growth = 0.7

FC(F)(F)c1ccc(CN2CC3C(c4ccc(Cl)nc4)C4(c5cccnc5)CC3(C4)C2c2ccccc2)cc1 (stereo unspecified)
- E coli growth = 0.72

CCN1C(=O)C2C(c3ccc(-c4ccc(OC)cc4)c(OC)c3)N[C@@](Cc3ccccc3)(C(=O)OC)C2C1=O (stereo partly specified)
- E coli growth = 0.69

CCSc1ccc(C2C3C(=O)N(CC)C(=O)C3[C@]3(C(=O)OC)CCCCN23)cc1 (stereo partly specified)
- E coli growth = 0.63&0.69

CCN1CC2C3C(=O)N(C)C(=O)C3[C@](Cc3ccccc3)(C1=O)N2C(=O)c1ccc(Cl)cc1 (stereo partly specified)
- E coli growth = 0.65

O=C(NC1CC=CCC(CC(=O)N(CCO)Cc2ccccc2)C(=O)NC(c2ccccc2)COC1=O)OCC1c2ccccc2-c2ccccc21 (stereo unspecified)
- E coli growth = 0.67

CC(C)(C)C1COC(=O)C(NC(=O)OCC2c3ccccc3-c3ccccc32)CC=CCC(CC(=O)NCCO)C(=O)N1 (stereo unspecified)
- E coli growth = 0.73

COc1ccc(C2CC(=O)C=C(c3cccc(C(C)C)c3)C2)cc1OC (stereo unspecified)
- E coli growth = 0.65

CC=C1COC(C(=O)NCc2cccc(OC)c2OC)(C(F)(F)F)C=C1C=C1CCCCC1 (stereo unspecified)
- E coli growth = 0.7

CCCC1CCCCC=CCCCC(=O)OCCN1C(=O)OC(C)(C)C (stereo unspecified)
- E coli growth = 0.68&0.65

O=C(O)C1=CC(c2csc3ccccc23)CC(OCCCCO)O1 (stereo unspecified)
- E coli growth = 0.64&0.7

CCCCCCCCN1C(CC(=O)O)c2ccc(C(F)(F)F)cc2S1(=O)=O (stereo unspecified)
- E coli growth = 0.67

O=C(NC(Cc1ccccc1)C(=O)O)C(=Cc1ccccc1)NC(=O)c1cccc(Br)c1 (stereo unspecified)
- E coli growth = 0.65

O=S1(=O)NC(c2ccccc2)CC(c2ccc(C(F)(F)F)cc2)O1 (stereo unspecified)
- E coli growth = 0.72

COC(=O)C1C(=O)CC(C)(O)C(C(=O)OC)C1C=Cc1ccccc1 (stereo unspecified)
- E coli growth = 0.76

COc1ccc(C2C=CCN(C(=O)C3CCCC3)C(C)C(=O)N2Cc2ccc(F)cc2)cc1 (stereo unspecified)
- E coli growth = 0.71

CC1CCN(CCC2CCCN2S(=O)(=O)c2cccc(O)c2)CC1 (stereo unspecified)
- E coli growth = 0.7

O=C1CCC=CCC(CC(=O)N(CCO)Cc2ccccc2)C(=O)NC(Cc2ccccc2)CO1 (stereo unspecified)
- E coli growth = 0.65

CC(=O)NC(C)c1nc2ccccc2n1CCCN1CCN(c2nc(-c3ccc(C)cc3)cs2)CC1 (stereo unspecified)
- E coli growth = 0.67

COC(=O)C1=C(C(=O)OC)C2N(C)c3ccccc3[C@@]23CC(CO)N(C(=O)NCCBr)C3=N1 (stereo partly specified)
- E coli growth = 0.68

C=C[C@]1(C)CC1C(NP(=O)(c1ccccc1)c1ccccc1)c1ccccc1 (stereo partly specified)
- E coli growth = 0.65

CC(CO)NC(=O)C(C)C1C[C@]1(C)C(NC(=O)OCc1ccccc1)c1ccccc1 (stereo partly specified)
- E coli growth = 0.65

Cc1ccc(SCC(c2ccccc2)N2CCN(CC(C)C)CCC2=O)cc1 (stereo unspecified)
- E coli growth = 0.68

COC(=O)C(Cc1ccccc1)N(Cc1ccccc1)S(=O)(=O)N(Cc1ccccc1)C(Cc1ccccc1)C(=O)OC (stereo unspecified)
- E coli growth = 0.71&0.72

CC1CN(C(C)CO)C(=O)c2cccc(NC(=O)c3ccncc3)c2OC1CN(C)S(C)(=O)=O (stereo unspecified)
- E coli growth = 0.68

CN1CC[C@]23c4ccccc4NC1[C@]21CCN(C)C3Nc2ccccc21
- E coli growth = 0.63

COc1ccc(-c2sc3ccccc3c2C=Cc2ccc(OC)c(OC)c2)cc1
- E coli growth = 0.75

NC1=NCC(Cc2ccccc2)N1CCc1cc(C(F)(F)F)cc(C(F)(F)F)c1 (stereo unspecified)
- E coli growth = 0.66

CCN1C(=O)C2C(C1=O)C(c1cccc(OC)c1)N1C(=O)c3ccccc3NC(=O)C21 (stereo unspecified)
- E coli growth = 0.69

O=C(NCc1ccco1)c1cccc2c1C(=O)c1ccc(C=Cc3ccccc3)cc1S2(=O)=O
- E coli growth = 0.71

CCN1C(=O)NC(c2ccccc2)C(C(C)=O)C1C (stereo unspecified)
- E coli growth = 0.66

CCC(C)C1CN(C(CN2CCCC2CN2C(N)=NCC2Cc2ccccc2)C(C)C)C(=N)N1CCCC1CCCC1 (stereo unspecified)
- E coli growth = 0.62

CNC(=O)C(C)C1C[C@@]1(C)C(NC(=O)OCc1ccccc1)c1ccccc1 (stereo partly specified)
- E coli growth = 0.72

CO[C@@]1(NC(=O)CSCC#N)C(=O)N2C(C(=O)O)=C(CSc3nnnn3C)CSC21 (stereo partly specified)
- E coli growth = 0.6

CCC(C)C1NC(=O)C(CC(=O)O)NC(=O)c2cc([N+](=O)[O-])cc(I)c2NCCC(C(N)=O)NC1=O (stereo unspecified)
- E coli growth = 0.69

CC(=O)O[C@]1(C(C)=O)CCC2C3C=C(Cl)C4=CC(=O)CC[C@]4(C)C3CC[C@@]21C (stereo partly specified)
- E coli growth = 0.69

CC(O)C1CNC(=O)C(=O)N1CCc1cccc2ccccc12 (stereo unspecified)
- E coli growth = 0.68

Of the compounds above, nine have an aryl methoxy group.
COc1ccc(C2CC=C(C(=O)O)C(c3ccccc3F)N2S(=O)(=O)c2ccc(C)cc2)cc1OC (stereo unspecified)
- E coli growth = 0.68

CCOC(=O)C=Cc1ccc2c(c1)S(=O)(=O)N(Cc1ccc(OC)cc1)C2CC(=O)OCC (stereo unspecified)
- E coli growth = 0.71

COc1ccc2c(c1)CCC1C2CC[C@]2(C)C(C(=O)O)CC12 (stereo partly specified)
- E coli growth = 0.7

CCN1C(=O)C2C(c3ccc(-c4ccc(OC)cc4)c(OC)c3)N[C@@](Cc3ccccc3)(C(=O)OC)C2C1=O (stereo partly specified)
- E coli growth = 0.69

COc1ccc(C2CC(=O)C=C(c3cccc(C(C)C)c3)C2)cc1OC (stereo unspecified)
- E coli growth = 0.65

CC=C1COC(C(=O)NCc2cccc(OC)c2OC)(C(F)(F)F)C=C1C=C1CCCCC1 (stereo unspecified)
- E coli growth = 0.7

COc1ccc(C2C=CCN(C(=O)C3CCCC3)C(C)C(=O)N2Cc2ccc(F)cc2)cc1 (stereo unspecified)
- E coli growth = 0.71

COc1ccc(-c2sc3ccccc3c2C=Cc2ccc(OC)c(OC)c2)cc1
- E coli growth = 0.75

CCN1C(=O)C2C(C1=O)C(c1cccc(OC)c1)N1C(=O)c3ccccc3NC(=O)C21 (stereo unspecified)
- E coli growth = 0.69

New compounds follow:
compound	E coli growth
CC1CN(c2nc3nonc3nc2N2CCSCC2)CC(C)O1 (stereo unspecified)	0.71
CN1CC2C3C(=O)N(Cc4ccccc4)C(=O)C3[C@](C)(C1=O)N2C(=O)c1ccc(Br)cc1 (stereo partly specified)	0.69
CC(C)(C)NC(=O)C(=Cc1ccco1)c1ccccc1	0.73
COc1cccc(C2=CC(=O)CC(c3ccc(OC)c(OC)c3)C2)c1 (stereo unspecified)	0.68
O=C1NCC(c2ccccc2)N(CCc2cccc(F)c2)C1=O (stereo unspecified)	0.68
CCOC(=O)C1C2COc3ccc(OC)cc3C2N2C(=O)CN(Cc3ccco3)C(=O)[C@@]12C (stereo partly specified)	0.68
COc1cccc(C(=O)NNC(C)=CC(=O)C(F)(F)C(F)(F)C(F)(F)F)c1	0.64
COc1ccc(C2C=C(C(=O)O)OC(OCCCCO)C2)cc1 (stereo unspecified)	0.71&0.71
CC(=CCCC(C)(O)C1CC[C@@]2(C)C3CC=C4C(CCC(OC5OC(CO)C(O)C(O)C5O)C4(C)C)[C@]3(C)C(=O)C[C@]12C)COC1OC(CO)C(O)C(O)C1O (stereo partly specified)	0.68
CCC(C)C1CNC(=S)N1CCC12CC3CC(CC(C3)C1)C2 (stereo unspecified)	0.66
CC(O)C1CNC(=O)C(=O)N1CC(C)(C)C (stereo unspecified)	0.71
COc1ccc(S(=O)(=O)Nc2cccc3c2OC(CN(C)C(=O)Nc2ccc(C(F)(F)F)cc2)C(C)CN(C(C)CO)C3=O)cc1 (stereo unspecified)	0.66
CC(C)CC(CSc1ccccc1)N1CCN(CC(C)C)CCC1=O (stereo unspecified)	0.71
CC(C)CC(CSc1ccccc1)N1CCN(C)CCC1=O (stereo unspecified)	0.71
CCOC(=O)C1C2COc3cc(OC)ccc3C2N2C(=O)CN(CC3CCCO3)C(=O)[C@@]12C (stereo partly specified)	0.69
CCOC(=O)C1C2COc3ccc(Cl)cc3C2N2C(=O)c3cc(F)ccc3NC(=O)[C@@]12C (stereo partly specified)	0.68
O=C1C=C(c2ccc3ncccc3c2)CC(c2ccc(Cl)cc2)C1 (stereo unspecified)	0.68
CN1CCC(=O)N(C(COc2ccccc2)Cc2ccccc2)CC1 (stereo unspecified)	0.69
CC1CN(C(C)CO)C(=O)c2cccc(NC(=O)c3ccncc3)c2OC1CN(C)C (stereo unspecified)	0.62
CC1CN(S(=O)(=O)c2c(F)cccc2F)CCN1S(=O)(=O)c1ccc2c(c1)OCCO2 (stereo unspecified)	0.66
COc1ccc(C2=CC(=O)CC(c3ccc(Cl)cc3)C2)cn1 (stereo unspecified)	0.69
COc1ccc(CC2CN3C(=NCC3C(C)C)N2CC(C)NC(=O)c2ccc(C)c(Br)c2)cc1 (stereo unspecified)	0.64
CCN1C(=O)NC(CCc2ccccc2)C(C(=O)OC)C1C (stereo unspecified)	0.68&0.7
CC(C)CC1CN=C(Nc2ccccc2)N1CC1CCCC1 (stereo unspecified)	0.68
CCN1C(=S)NC(c2ccccc2)C(C(=O)OC)=C1C (stereo unspecified)	0.64

Next section, starting with the last 2 of the part before.
compound	E coli growth
CC(C)CC1CN=C(Nc2ccccc2)N1CC1CCCC1 (stereo unspecified)	0.68
CCN1C(=S)NC(c2ccccc2)C(C(=O)OC)=C1C (stereo unspecified)	0.64
COC(=O)C1=C(C(=O)OC)C2Nc3ccccc3[C@@]23CC(C(=O)OC)N(C(=O)c2cccs2)C3=N1 (stereo partly specified)	0.66
Cc1cccc(N2C(=O)N3C(c4ccc(F)cc4)C4C(=O)N(C5CCCCC5)C(=O)C4[C@]3(Cc3ccccc3)C2=O)c1 (stereo partly specified)	0.68
CC(C)C1NC(=O)c2cc([N+](=O)[O-])cc(I)c2NCCCC(C(=O)NC(CC(=O)O)C(N)=O)NC(=O)C(CO)NC1=O (stereo unspecified)	0.65
COc1ccc(N=C2SC(=Cc3ccc(C)s3)C(=O)N2CC(C)C)cc1	0.73
COc1cc(CCCN2CCNCC2Cc2cccc3ccccc23)cc(OC)c1OC (stereo unspecified)	0.65
COc1ccc(CN2CCC3C=CCC(C(=O)N4CCOCC4)C3C2=O)cc1OC (stereo unspecified)	0.62
C#CCNC(=O)C1=CC(c2cn(C(C)=O)c3ccccc23)CC(OCCCCO)O1 (stereo unspecified)	0.7
CCCCC(=O)N1CC=CC(c2ccc(OC)cc2)N(Cc2ccc(F)cc2)C(=O)C1C (stereo unspecified)	0.67
CCOC1OC(C(=O)Nc2ccccc2)=CC(c2ccc3c(c2)OCO3)C1CCCO (stereo unspecified)	0.68
CCCCC(=O)O[C@]1(C(=O)CO)CCC2C3CCC4=CC(=O)CC[C@]4(C)C3C(O)C[C@@]21C (stereo partly specified)	0.68
CCCn1c2ccc(C(C)=NO)cc2c2cc(C(C)=NO)ccc21	0.68
CN(C)C1=NCC(Cc2ccccc2)N1CCc1cccc(F)c1 (stereo unspecified)	0.69
COC(=O)C1=C(C)NC(=O)C1=Cc1cc(C)n(-c2cc(C)cc(C)c2)c1C	0.69
COCCCN1C(=O)C(=O)C(=C(O)c2ccc(OC)cc2)C1c1cccc(OC)c1 (stereo unspecified)	0.69
NC(=O)C1=CC(c2ccc(Br)cc2)CC(OCc2ccc(CO)cc2)O1 (stereo unspecified)	0.7&0.7
CCN1C(=O)NC(CCc2ccccc2)C(C(C)=O)C1C (stereo unspecified)	0.67
O=C(Nc1ccc(C(F)(F)F)cc1[N+](=O)[O-])OC1C(Cc2ccccc2)NS(=O)(=O)C2CC3C=C[C@]12O3 (stereo partly specified)	0.7
CCOC(=O)CN1C(=O)NC(CCc2ccccc2)C(C(=O)OC)C1C (stereo unspecified)	0.67&0.69
COc1ccc2c(c1)OCC1C2N2C(=O)CN(CC3CCCO3)C(=O)[C@@]2(C)C1c1ccccc1 (stereo partly specified)	0.7

The list is partial; rates above refer to the full screens.
